VACV mCherry inh: vaccinia inhibition (mCherry reporter) | 310,000 compounds, 0.63% hits | Vaccinia virus mCherry reporter infection, fluorescence; about a quarter of the inactives have no number | AID 720579 | Potency, µM (highest dose often 36.5 µM), for inactives: at the top dose activity change, negative = inhibition, hits mostly inhibitors; active = well fitted inhibition curve with a large enough effect; inconclusive = small, poorly fitted or top-dose-only effect; inactive = no such curve, though single readings can be large or run the other way; tested in A549 cells; also: nearly all actives have a fitted effect of over 35% in size; inactives centre near -10
Vaccinia Venus: inhibitors of vaccinia virus (Venus reporter); Vaccinia virus Venus reporter expression, fluorescence; Potency, µM (doses to about 36.5 µM), for the others: at the top dose activity change, negative = inhibition, actives largely listed as inhibitors; 330,000 compounds, 0.46% hits; AID 720580; active means well fitted inhibition curve with a large enough effect; inconclusive means small, poorly fitted or top-dose-only effect; inactive means no such curve, though single readings can be large or run the other way; tested in A549 cells; also: nearly all actives have a fitted effect of over 30% in size; inactives centre near -10
* marks the source's active call; other numbers are inactive results; i = inactive; ? = inconclusive; / = no result given; & = joins results of further samples; [ ] = remark or other dose. % is scaled to controls: 0 for no effect and ±100 for the full control effect; potency is read from the fitted curve at half-maximal effect.

no.	Structure	Vaccinia Venus	VACV mCherry inh
1	CCN1C(=O)[C@@H]2[C@@H]3CN(S(=O)(=O)c4ccc(C)cc4)[C@@H](c4ccccc4)[C@@H]3C(=O)C[C@@H]2C1=O	-13%	13%
2	CCCN1CCC[C@@H]2Cc3[nH]ncc3C[C@H]21	-16%	-4%
3	Cc1c(C(=O)Nc2ccc(C(=O)O)cc2)cnn1C	-12%	/
4	O=C(NCCc1ccc2c(c1)OCO2)Oc1ccccc1	7%	10%
5	O=C(CCCc1nc2ccccc2s1)NC1CCOC1=O (stereo not drawn)	-11%	i
6	CCCc1cc(C(=O)Nc2c(C)n(C)n(-c3ccccc3)c2=O)no1	-7%	i
7	COc1ccc(N(C)C(=O)c2ccc3c(c2)nnn3C)cc1	-4%	-2%
8	O=C(Nc1ccccc1)N(Cc1cccnc1)Cc1ccco1	-7%	-9%
9	CCOC(=O)c1ccc(CNC(=O)CSc2nnc(-c3ccncc3)o2)cc1	-8%	-15%
10	CCOC(=O)C(O)(C1C(=O)CC(C)(C)CC1=O)C(F)(F)F (stereo not drawn)	-3%	-12%
11	Cc1cccc(OCc2n(CC(=O)OC3CC(C)CCC3C(C)C)c3ccccc3[n+]2C)c1 (stereo not drawn)	-30%	?
12	Cc1cccc(C)c1NC(=S)NCc1ccccc1	-17%	-9%
13	Nc1nc(SCC(=O)NCc2ccccc2)[nH]c(=O)c1NC(=O)c1ccccc1F	-25%	-7%
14	COc1ccc(S(=O)(=O)N2CCc3ccccc32)cc1OC	-28%	6%
15	Cc1ccc(N2C(=O)C3C4C=CC(C4)C3C2=O)cc1 (stereo not drawn)	0%	/
16	COc1ccncc1-c1ccc(C2=CC(=O)CC(C)(C)C2=O)cc1	-17%	-10%
17	Cc1ccc2nc(NCC(=O)NN)nc(-c3ccccc3)c2c1	-8%	i
18	Cc1ccc(NC(=O)CN(C)S(=O)(=O)c2cnc[nH]2)cc1C	-12%	/
19	COc1ccc(-c2nc(CN3CCC(c4ccccc4)CC3)c(C)o2)cc1OC	-17%	-19%
20	COc1ccc(S(N)(=O)=O)cc1C(=O)OCC1CCCCC1	-4%	5%

Overlap with the part before: four entries, followed by the next part.
no.	Structure	Vaccinia Venus	VACV mCherry inh
17	Cc1ccc2nc(NCC(=O)NN)nc(-c3ccccc3)c2c1	-8%	i
18	Cc1ccc(NC(=O)CN(C)S(=O)(=O)c2cnc[nH]2)cc1C	-12%	/
19	COc1ccc(-c2nc(CN3CCC(c4ccccc4)CC3)c(C)o2)cc1OC	-17%	-19%
20	COc1ccc(S(N)(=O)=O)cc1C(=O)OCC1CCCCC1	-4%	5%
21	O=C(c1cnccn1)N1CCN(S(=O)(=O)c2cccc(Cl)c2)CC1	-21%	-14%
22	CCOc1ccc(CCNS(=O)(=O)c2cn(C)cn2)cc1OCC	0%[7.34 µM]	i[7.34 µM]
23	CC(=O)Nc1ccc(S(=O)(=O)N2CCC(=O)Nc3ccccc32)cc1	-9%	-8%
24	CS(=O)(=O)N(CC(=O)Nc1ccccc1C(=O)N1CCCC1)c1cccc([N+](=O)[O-])c1	-7%	i
25	CNC(=O)CSCCn1c(SCC(=O)NC)nc2ccccc2c1=O	-1%	-12%
26	CN(C)S(=O)(=O)N(CC(=O)NCCSc1ccc(Cl)cc1)c1ccccc1	-11%	-14%
27	COc1ccc(C2=CC(c3ccc(F)cc3)n3ncc(C(=O)Nc4ccc(C)cc4)c3N2)cc1 (stereo not drawn)	-25%	?
28	Cn1cc(Br)c(C(=O)Nc2ncc(Br)s2)n1	-1%	i
29	CCc1cccc(C)c1NC(=O)C1=C(C)C(=O)OC12CCC(C)CC2 (stereo not drawn)	-10%	-9%
30	C=C(C)COc1ccc(-c2n[nH]c(C)c2Oc2ccccc2OC)c(O)c1	?	/
31	CCc1cc(=O)oc2cc(C)cc(OCC(=O)N3CCC(C(=O)O)CC3)c12	-2%	-1%
32	O=C1C=C(c2cccc3c2sc2ccccc23)C[C@@H](c2ccc(Cl)cc2)C1	-28%	-11%
33	COc1ccc(S(=O)(=O)N(CC(=O)Nc2ccc3c(c2)OCO3)c2ccc(C)cc2)cc1	-11%	-11%
34	CCCC1=NN(c2ccc([N+](=O)[O-])cc2)C(=O)/C1=C/N(C)C	-12%	-7%
35	Cc1ccc(NC(=O)c2cccc(C(=O)Nc3ccc(C)cc3C(=O)O)c2)c(C(=O)O)c1	-15%	-19%
36	Cc1cccc(N2CCN(C(=O)c3ccc(Cl)c(S(=O)(=O)N4CCc5ccccc5C4)c3)CC2)c1C	-19%	-3%
37	COc1ccc(NC(=O)N2CCC(CO)(CC3CCCCO3)CC2)c(OC)c1 (stereo not drawn)	-8%	-34%
38	COc1cccc(OC)c1C(=O)Nc1nnc(C)s1	1%	-9%
39	Cc1cc(-n2c(C)cc(C(=O)CSc3ccc4c(c3)OCCO4)c2C)no1	-17%	-18%
40	CCN(CC)S(=O)(=O)c1ccc(N2CCOCC2)c(NCC(=O)Nc2ccc(F)cc2)c1	-17%	-9%

The list goes on, starting with the last 4 of the part before.
no.	Structure	Vaccinia Venus	VACV mCherry inh
37	COc1ccc(NC(=O)N2CCC(CO)(CC3CCCCO3)CC2)c(OC)c1 (stereo not drawn)	-8%	-34%
38	COc1cccc(OC)c1C(=O)Nc1nnc(C)s1	1%	-9%
39	Cc1cc(-n2c(C)cc(C(=O)CSc3ccc4c(c3)OCCO4)c2C)no1	-17%	-18%
40	CCN(CC)S(=O)(=O)c1ccc(N2CCOCC2)c(NCC(=O)Nc2ccc(F)cc2)c1	-17%	-9%
41	Cc1ccc(S(=O)(=O)NC(=O)NC2=NC(C)(C)N(c3ccc(Cl)c(Cl)c3)C(N)=N2)cc1	-6%	i
42	COc1ccc(S(=O)(=O)N2CCC(C(=O)NCCC(=O)NCc3cccnc3)CC2)cc1	-2%	i
43	O=C1Cc2cccc3cccc1c23	-22%	i
44	Cc1nn(C)c(C(=O)Sc2cccc(Cl)c2)c1[N+](=O)[O-]	-3%	i
45	COc1cccc(CNC(=O)[C@@H]2CCCN2C(=O)[C@H]2CCCCN2C(=O)c2c(F)cccc2F)c1	-1%	-3%
46	S=C(NCc1ccccn1)Nc1cccc(Cl)c1	-5%	-16%
47	Cc1cc2ncn(CCC(=O)NC3CCCC3)c2cc1C	-9%	i
48	CC(=O)CC[N+](C)(C)C	-9%	-8%
49	Cc1oc(C)c2c(=O)ccc3c(c12)OC(N)=C(C#N)C3c1ccccc1 (stereo not drawn)	24%	/
50	CCCCn1c(-c2ccc(Cl)c(Cl)c2)nc2cc3[nH]c(=O)c(C(C)C)nc3cc21	-26%	?
51	COc1cccc(/C=C/C(=O)N(C)CC(=O)Nc2ccc(Cl)c(C(F)(F)F)c2)c1	-19%	-20%
52	CCN(Cc1ccccc1)Cc1c(O)ccc2oc(C)c(C(=O)Nc3ccccc3C)c12	-25%	-25%
53	Cc1ccc(OP2(=O)Nc3cc(C)c(C)cc3S2)cc1 (stereo not drawn)	-5%	?
54	CCOc1ccccc1C(=O)NCC(=O)OCC(=O)NCCc1ccc(S(N)(=O)=O)cc1	-5%	/
55	CCN1CCc2c(OCC(=O)N3CCCc4ccccc43)cccc2C1=O	-4%	3%
56	Cc1ccc(C)c(NS(=O)(=O)c2cc(C(=O)NCCC3=CCCCC3)ccc2C)c1	?	-26%
57	CC(C)(C)c1ccc(CC(=O)N2CCC2(C)C(=O)NS(=O)(=O)c2ccc(Cl)s2)cc1 (stereo not drawn)	-3%	4%
58	O=C(c1ccc([N+](=O)[O-])cc1)N1CCN(Cc2ccccc2)CC1	-9%	-1%
59	Cc1c(CC(=O)N2C[C@H]3C[C@@H](C2)c2cccc(=O)n2C3)c(=O)oc2cc(O)c(Cl)cc12	-1%	2%
60	O=C(NC1CCCCCC1)c1ccc(OCC2CCCO2)cc1 (stereo not drawn)	-23%	0%

New compounds follow.
no.	Structure	Vaccinia Venus	VACV mCherry inh
61	Cc1ccc(-c2nnc(SCC(=O)NNC(=O)COc3ccccc3C)n2C)cc1	-16%	-8%
62	Cc1cc(C)nc(N2CCCC(C(=O)Nc3nnc(C)s3)C2)n1 (stereo not drawn)	-8%	-11%
63	CCOC(=O)c1ccc(S(=O)(=O)NCCN2CCOCC2)cc1	-7%	0%
64	O=C(NCc1nc2ccccc2[nH]1)C1=C[C@@H](c2ccccc2)C[C@@H](OCc2ccc(CO)cc2)O1	-23%	-2%
65	Cc1ccc(-c2nc3cccc(C)n3c2Nc2ccc3c(c2)OCCO3)cc1	-5%	-8%
66	O=[N+]([O-])c1ccc(N2CCN(S(=O)(=O)c3ccccc3[N+](=O)[O-])CC2)cc1N1CCc2ccccc2C1	-5%	-8%
67	CC(C)c1ccc(/C=C/C(=O)Nc2nncs2)cc1	-22%	2%
68	Cc1ccc(-n2c(O)c(C=NC3CCS(=O)(=O)C3)c3ccccc3c2=O)cc1C (stereo not drawn)	-13%	-6%
69	CCOC(=O)c1sc(=NC(=O)c2ccc(C)cc2)n(C)c1C	-1%	12%
70	Clc1cc(Cl)cc(C2=NC(Cc3ccccc3)CO2)c1 (stereo not drawn)	-7%	i
71	OC[C@@H](O)C1OC2NC(=S)OC2C1O (stereo partly drawn)	-5%	-10%
72	CCCc1nn2c(=O)cc(COC(=O)c3cccc(NC(=O)c4ccc(OCC)cc4)c3)nc2s1	-15%	i
73	COc1ccc2c(CNCCc3ccccc3)c(C(=O)O)n(Cc3cccc(F)c3)c2c1	-6%	-11%
74	CCN1CCc2c(sc(NC(=O)Nc3ccc(Cl)c(Cl)c3)c2C(N)=O)C1	?	?
75	COc1ccccc1N=CC1=C(O)CC(c2ccccc2)CC1=O (stereo not drawn)	?	?
76	COc1cc(C=Nc2c(C)cc(C)cc2C)ccc1OC(C)=O	-12%	-2%
77	COC(=O)C1=C(c2ccc(F)cc2OCc2ccccc2)C[C@@H]2CC[C@H]1N2C	-19%	i
78	COCCNCCCCOc1ccccc1-c1ccccc1	-20%	-26%
79	COc1cc2ccccc2cc1C(=O)N1CCCCC1	-4%	-25%
80	CN(Cc1cccc(F)c1)C(=O)C(c1ccccc1)c1ccccc1	-10%	-17%

Next part.
no.	Structure	Vaccinia Venus	VACV mCherry inh
81	CNC(=S)NNC(=O)c1cccc(N(C)C)c1	-14%	-11%
82	CC1(C(=O)Nc2cccc3c2CCCC3)CCN1C(=O)C1(c2ccccc2)CC1 (stereo not drawn)	-1%	i
83	COCCN(C(=O)CN1CCCc2ccccc21)c1c(N)n(Cc2ccccc2)c(=O)[nH]c1=O	2%	/
84	CCN(C(=O)COC(=O)C(C)(C)Oc1ccc(Cl)cc1)c1c(N)n(Cc2ccccc2)c(=O)[nH]c1=O	-24%	-20%
85	Cc1ccc(NC(=O)c2ccc3c(c2)CCN3S(C)(=O)=O)cc1C	-26%	i
86	O=C(Nc1cccnc1)c1ccc(Cl)c(S(=O)(=O)N2CCOCC2)c1	4%	-8%
87	O=C(c1ccc(S(=O)(=O)c2ccccc2)cc1)N1CCCCCC1	-17%	-2%
88	Cc1ccc(S(=O)(=O)c2nc(-c3ccccc3)oc2NCCN2CCOCC2)cc1	0%	-13%
89	c1ccc(NNC2=NCCCCC2)cc1	-12%	i
90	Cc1cc(C)cc(NC(=O)C2CC23CCN(Cc2ccc4ncccc4c2)CC3)c1 (stereo not drawn)	0%	-3%
91	Cc1cc(Cl)ccc1NNC(=O)c1snnc1C	?	-19%
92	O=C(CC(=O)c1cccnc1)c1ccccc1	-6%	i
93	CCC(C)N1C(=O)NC(=O)C2(Cc3cc(C)ccc3N(C)C2)C1=O (stereo not drawn)	-11%	-20%
94	COc1ccc(-c2cc(-c3ccccc3)nc(SC(C)C(=O)O)c2C#N)cc1 (stereo not drawn)	-13%	?
95	COc1ccc(CN2CCN(Cc3ccccc3F)CC2)cc1	-17%	-5%
96	Cc1ccccc1-c1nc2c(c(SCc3cccc(Cl)c3)n1)Cc1c(CO)cnc(C)c1O2	-20%	-16%
97	NS(=O)(=O)c1cccc(NC(=O)Nc2ccc(Cl)cc2)c1	-9%	-18%
98	CCCCN(C1CCS(=O)(=O)C1)S(=O)(=O)c1cccs1 (stereo not drawn)	-13%	i
99	CC(=O)Nc1cccc(CP(=O)(c2ccccc2)c2ccccc2)c1	-2%	-12%
100	CC(=O)c1sc(Nc2ccccn2)nc1C	-26%	/

Additional entries.
no.	Structure	Vaccinia Venus	VACV mCherry inh
101	O=C1CC(c2ccc(O)c(O)c2)Oc2cc(O)cc(O)c21 (stereo not drawn)	-15%&-9%	-10%&-9%
102	COc1ccc(CNC(=O)CSCc2ccccc2Cl)cc1	-22%	-18%
103	Cc1ccccc1CNC(=O)Cc1csc2ccccc12	-14%	-11%
104	O=S(=O)(c1ccc2nc(Cc3ccccc3)[nH]c2c1)N1CCOCC1	-11%	i
105	CC(=NCCC1=CCCCC1)c1c(O)[nH]c(=O)[nH]c1=O	-26%	/
106	COc1ccc(-c2cc3c(=O)n(CC(=O)NCc4cccnc4)nc(C)n3n2)cc1	-8%	-7%

Compound profiles (already shown). Order of values: Vaccinia Venus | VACV mCherry inh
Results for O=C1CC(c2ccc(O)c(O)c2)Oc2cc(O)cc(O)c21 (stereo not drawn) = -15%&-9% | -10%&-9%
Results for Cc1ccccc1CNC(=O)Cc1csc2ccccc12 = -14% | -11%
Results for COc1ccc(CNC(=O)CSCc2ccccc2Cl)cc1 = -22% | -18%

Compound activity as filed in PubChem BioAssay.
